Compound activity as filed in PubChem.
KCNQ2 enhance: potentiators of rat KCNQ2 potassium channel. actives 0.54% (n = 310,000). CHO-K1 KCNQ2, FluxOR thallium flux fluorescence; stronger effect = higher value. B-score at 10 µM. O88943;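 active means fluorescence ratio B-score at least 3 SD of library B-scores, with initial fluorescence B-score within 3 SD, cut at about 5.3 in these data; same plate scores as AID 2156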;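 further: B-score of peak minus minimum over baseline fluorescence ratio after K+ and Tl+ stimulus; positive B-score means potentiation of KCNQ2 with more thallium influx and brighter signal; only the inactives scoring about 0 or higher are listed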
Target sequence (O88943 whole entry, looked up): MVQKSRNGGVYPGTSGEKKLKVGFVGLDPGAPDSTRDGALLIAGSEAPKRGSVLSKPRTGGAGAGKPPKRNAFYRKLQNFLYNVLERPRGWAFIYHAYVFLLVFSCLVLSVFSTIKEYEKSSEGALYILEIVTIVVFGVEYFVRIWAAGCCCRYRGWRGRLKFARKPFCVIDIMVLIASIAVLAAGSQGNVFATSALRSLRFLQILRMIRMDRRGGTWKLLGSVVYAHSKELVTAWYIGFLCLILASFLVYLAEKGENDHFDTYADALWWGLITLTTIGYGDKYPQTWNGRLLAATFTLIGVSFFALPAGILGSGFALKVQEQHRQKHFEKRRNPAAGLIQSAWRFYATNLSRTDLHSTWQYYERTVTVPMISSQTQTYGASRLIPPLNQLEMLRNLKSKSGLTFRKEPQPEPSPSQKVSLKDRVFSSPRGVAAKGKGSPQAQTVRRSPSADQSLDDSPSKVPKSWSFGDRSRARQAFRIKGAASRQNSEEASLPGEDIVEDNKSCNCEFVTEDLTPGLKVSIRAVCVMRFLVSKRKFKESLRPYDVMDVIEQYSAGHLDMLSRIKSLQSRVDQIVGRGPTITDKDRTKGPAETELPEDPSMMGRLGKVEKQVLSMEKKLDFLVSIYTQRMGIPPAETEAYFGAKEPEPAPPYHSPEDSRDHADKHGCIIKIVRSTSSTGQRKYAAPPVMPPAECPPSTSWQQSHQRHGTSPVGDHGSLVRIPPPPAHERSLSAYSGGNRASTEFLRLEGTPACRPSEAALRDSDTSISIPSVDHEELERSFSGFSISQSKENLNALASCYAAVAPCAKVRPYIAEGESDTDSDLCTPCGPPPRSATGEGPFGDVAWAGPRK
KCNQ2 enhance baseline: recorded beside KCNQ2 enhance, whose call it bears; B-score; compound at 10 µM; measured here: initial fluorescence intensity artifact check;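 brightness before thallium and not channel activity; 0 = typical well and far values either way flag optical interference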
Numbers without * were called inactive. A portion of the library. The share of hits here may be higher or lower than overall.

SMILES | KCNQ2 enhance | KCNQ2 enhance baseline
CCC(Sc1nc2ccccc2[nH]1)C(=O)Nc1ccc(NC(C)=O)cc1 (stereo unspecified) | 0.96 | 0.12
COc1ccc(N=Nc2ccc(O)c(P(=O)(c3ccccc3)c3ccccc3)c2)cc1 | 0.93 | 0.07
Cc1ccc(C(=C2C3C=CC2C2C(=O)NC(=O)C32)c2ccc(C)cc2)cc1 (stereo unspecified) | 0.69 | 0
Cc1ccc(C2CC(c3ccc(Br)cc3)=NN2C(=O)CSC2=NN3CCCC(=O)N=C3S2)cc1 (stereo unspecified) | 1 | 0.03
CN(C)c1ccc(NC(=S)c2ccccn2)cc1 | 0.62 | 0.17
O=C(Nc1ccc(Cl)cc1)c1ccc(OC2CSC2)cc1 | 0.13 | 0.93
CC(/C=C/c1ccco1)=N\NC(=O)c1cc(Cl)ccc1O | 0.16 | -0.85
O=C(CCNC(=O)c1ccco1)Nc1ccc(OC(F)(F)F)cc1 | 1.08 | 1.12
Cc1ccc(/C=c2\sc3n(c2=O)CN(c2cccc(Br)c2)CN=3)o1 | 1.29 | 0.17
Cc1oc(S(=O)(=O)N2CCCCC2)cc1NC(=O)Nc1ccc(F)cc1 | 1.48 | 0.04
O=C(COc1ccccc1)NCC(=O)NC1CCCCC1 | 0.55 | -1.58
Cn1c(=O)cc(OCC(=O)NCc2ccccn2)c2ccccc21 | 0.56 | 1.1
COc1ccc(OCC(=O)N/N=C/c2ccc(O[C@@H]3O[C@H](CO)[C@@H](O)[C@H](O)[C@H]3O)cc2)cc1 | 1.41 | -1.65
Cc1ccc(/C=C2\CC(C)CC3=C2NC(=S)NC3c2ccc(C)cc2)cc1 (stereo unspecified) | 2.75 | 0.82
Cc1noc(C)c1COc1ccc(C(=O)OCC(=O)N2CC(=O)Nc3ccccc32)cc1 | 0.01 | 0.11
CCS(=O)(=O)c1ccc2oc(SCC(=O)c3ccco3)nc2c1 | 1.02 | -0.39
Cc1ccccc1-c1nc(CN2CCCC(C(=O)NCc3cccnc3)C2)c(C)o1 (stereo unspecified) | 9.04* | -0.6*
Cc1cccc(N2CCN(S(=O)(=O)c3ccc4[nH]c(=O)ccc4c3)CC2)c1C | 1.24 | -1.25
CCCNC(=O)CN1C(=O)NC2(CCCc3cc(OC)ccc32)C1=O (stereo unspecified) | 0.68 | -0.92
NC(=O)c1ccc(OCC(F)(F)C(F)(F)C(F)(F)C(F)(F)C(F)(F)C(F)F)cc1 | 0.37 | 2.1
O=C(CNS(=O)(=O)c1ccccc1)OCC(=O)c1ccc(Br)cc1 | 0.78 | 0.02
COc1ccc(NC(=O)NN2CCN(C)CC2)cc1OC | 0.07 | 0
CC1CCC(NC(=O)C2CCC(CNS(=O)(=O)c3ccccc3)CC2)CC1 (stereo unspecified) | 0.05 | -1.63
Cc1ccc2cc(CN(Cc3ccco3)C(=O)c3ccccc3)c(=O)[nH]c2c1C | 1.11 | -0.78
O=C(CC1CCCCC1)NCc1cn2ccsc2n1 | 1.33 | -0.08
C=CCN(CC=C)Cc1c(C)[nH]c2ccc(C(=O)OCC)cc2c1=O | 2.7 | -2.42
O=C(CCC(=O)N1CCN(Cc2ccc(F)cc2)CC1)Nc1nnc(C2CCCCC2)s1 | 0.5 | -0.62
CCN(CC)CCOCCOC(=O)C1(c2ccccc2)CCCC1 | 0.49 | -0.89
COCCN(CCOC)S(=O)(=O)c1ccc(C(=O)Nc2ccc(S(=O)(=O)Nc3nccc(C)n3)cc2)cc1 | 0.74 | 0.97
Cc1ccccc1NC(=O)CSc1ccsc1[N+](=O)[O-] | 1.55 | -1.78
Cc1cc(C)n(-c2ncnc3ccccc23)n1 | 0.42 | -0.91
CCOC(=O)CNS(=O)(=O)CCN1C(=O)c2ccccc2C1=O | 0.6 | -0.19
COc1cccc(/C=C/C(=O)Nc2cccc(C(C)=O)c2)c1OC | 2.16 | 0.47
O=C(NNS(=O)(=O)c1ccc(Cl)cc1)c1ccc(S(=O)(=O)N2CCCCC2)cc1 | 0.39 | 0.29
O=C(COC(=O)c1ccccn1)NCc1cccs1 | 1.69 | -1
Cc1ccc(S(=O)(=O)N(CC(=O)Nc2ccccc2C(=O)O)c2ccccc2C)cc1 | 0.82 | -0.37
NC(=O)C1CCN(c2oc(-c3ccccc3F)nc2S(=O)(=O)c2ccc(Cl)cc2)CC1 | 0.68 | -0.33
CC(=O)c1c(C)nn(CC(O)COc2ccc3c(c2)CCC3)c1C (stereo unspecified) | 0.28 | 1.49
COc1ccc(CN2CCNC(=O)C2CC(=O)NCCc2c[nH]c3ccccc23)c(OC)c1 (stereo unspecified) | 0.59 | -0.81
COc1ccc(C2CC(c3ccc4ccccc4c3)=NN2C(=O)CN2C(=O)CCC2=O)cc1 (stereo unspecified) | 0.41 | -2.74
COc1ccc(-n2nnc3c(=O)n(CC(=O)NCC4CCCO4)cnc32)cc1 (stereo unspecified) | 1.12 | 1.73
NC(=O)CCCc1nc(-c2ccccc2)no1 | 0.08 | 1.77
Cc1ccc(S(=O)(=O)N(CC(=O)N/N=C\c2cccs2)c2cccc3cccnc23)cc1 | 0.01 | 0.08
O=C(NC1CCCCC1)NC1CCN(S(=O)(=O)c2ccc3c(c2)OCCO3)CC1 | 1.48 | -1.72
Cc1ccc(NC(=O)c2ccco2)c(NC(=O)c2ccccc2C)c1 | 0.01 | -0.65
Cc1c(O)ccc2c(O)c(NC(=O)c3ccc4c(c3)CCC(C)(C)O4)c(=O)oc12 | 0.55 | -0.43
O=C(NC(=S)Nc1nc(-c2cccc([N+](=O)[O-])c2)cs1)c1ccccc1Cl | 2.64 | 0.07
O=S(=O)(c1cccc(S(=O)(=O)N2CCN(c3ncccn3)CC2)c1)N1CCOCC1 | 0.15 | 0.48
O=S1(=O)N=C(N/N=C/c2ccccn2)c2ccccc21 | 1.92 | 0.72
O=C(C(c1ccccc1)c1ccccc1)N1CCN(Cc2ccco2)CC1 | 0.58 | -1.46
Cc1c(C(=O)OCC(C)C)[nH]c2c1C(=O)CC(c1cccs1)C2 (stereo unspecified) | 0.19 | -1.71
C=CCc1cc(Cl)ccc1OCCCNC(C)C | 0.39 | -0.04
O=C(NCc1ccccn1)c1ccccc1-c1ccccc1 | 0.07 | 0.58
Cc1ccc(SCC(=O)Nc2cccc(C)c2)cc1 | 0.01 | -0.3
NC(=O)c1ccc(NC(=O)COC(=O)c2ccccc2Nc2ccccc2)cc1 | 1.32 | -1.89
COc1ccc(NC(=O)COc2ccc(/C=N/O)cc2OC)cc1 | 0.53 | 2.43
CC(C)CCNC(=O)NC(=O)CN1C(=O)NC2(CCCCC2)C1=O | 1.07 | -0.69
COc1cc(NC(=O)[C@H](C)NC(=O)N2CCn3c2nc2ccccc23)cc(OC)c1 | 0.4 | -1.57
CCC(C)NS(=O)(=O)c1ccc(NC(=O)CCC2CCCCC2)cc1 (stereo unspecified) | 0.4 | -0.65
Cc1cc(C)cc(Nc2ccc(C(=O)O)cc2[N+](=O)[O-])c1 | 2.51 | -1.02

Single records (already shown). Order of screens: KCNQ2 enhance | KCNQ2 enhance baseline
`COc1ccc(NC(=O)COc2ccc(/C=N/O)cc2OC)cc1` is entered as 0.53 | 2.43
`Cc1c(O)ccc2c(O)c(NC(=O)c3ccc4c(c3)CCC(C)(C)O4)c(=O)oc12` is entered as 0.55 | -0.43

Remaining list, next part:
SMILES | KCNQ2 enhance | KCNQ2 enhance baseline
COc1ccccc1NC(=O)C1CC(C(C)C)OC1=O (stereo unspecified) | 0.34 | -1.41
Cc1ccc(-c2nc(C)sc2CC(=O)Nc2nnc(C)s2)cc1 | 0.1 | 1.99
Cc1cccc(C(=O)N/N=C/c2ccc(OC3CSC3)cc2)c1 | 0.01 | 0.01
O=C1OC(N2C(=O)CC[C@H]2C(=O)Nc2ccc3c(c2)OCO3)c2ccccc21 (stereo partly specified) | 1.16 | 0.14
Cc1cccc(NC(=O)C(C)C(=O)c2ccccc2)c1 (stereo unspecified) | 1.05 | -1.46
COc1ccccc1N(CC(=O)NC1CCCC1)C(=O)CCC(=O)Nc1ccccn1 | 0.47 | 1.18
CN(/N=C/c1cc(Br)cc(Br)c1O)c1cccc(C(F)(F)F)n1 | 4.36 | -0.02
CCOC(=O)CCC(=O)N1CCOCCN(C(=O)CCC(=O)OCC)CCOCC1 | 0.05 | 2.7
CCOc1cc(S(=O)(=O)N2CCN(C(=O)c3ccco3)CC2)ccc1F | 0.69 | 0.52
Cc1ccccc1NC(=O)/C(C#N)=C/c1ccccc1C(F)(F)F | 0.19 | -0.44
O=C(c1nc2ccccn2c1CNCCn1ccc2ccccc21)N1CCOCC1 | 0.18 | 0.11
COc1cc(-n2c(=O)c3ccccc3n(CC(=O)c3ccc(Br)cc3)c2=O)cc(OC)c1OC | 0.22 | -1.25
Cc1nc2ccc(NC(=O)CCC3CCCC3)cc2s1 | 4.61 | 0.57
CO[C@H]1C=CO[C@@]2(C)Oc3c(C)c(O)c4c(O)c(c(C=NN5CCN(C)CC5)c(O)c4c3C2=O)NC(=O)C(C)=CC=C[C@H](C)[C@H](O)[C@@H](C)[C@@H](O)[C@@H](C)[C@H](OC(C)=O)[C@@H]1C | 0.98 | 0.85
Cc1cc(C)n(-c2nc3ccccc3nc2Nc2ccc(CC(=O)O)cc2)n1 | 0.23 | 0.4
CCOc1ccc(C(C)=O)cc1NC(=O)/C=C\C(=O)O | 0.31 | -0.04
N=C1C(c2ccccc2)=C(O)CN1NC(=O)c1ccc(Cl)cc1 | 0.22 | 1.59
O=C(Nc1ccc2c(c1)C(=O)N(c1ccccc1)C2=O)c1cccs1 | 0.59 | 2.75
C[C@H]1C=C(C(=O)O)O[C@@H](OCc2ccc(CO)cc2)C1 | 1.41 | -1.97
CC(NC(=O)CSc1nc(=O)cc(N)n1-c1ccccc1)c1ccccc1 (stereo unspecified) | 0.68 | 0.06
Cc1cc(CNC(=O)Cc2c(F)cccc2Cl)nn1C | 0.12 | -0.11
COc1ccc(-c2nc3cc([N+](=O)[O-])ccc3o2)cc1OC | 0.76 | 0.76
CN(C)S(=O)(=O)c1cccc(NS(=O)(=O)c2ccc(Cl)s2)c1 | 0.7 | -1.22
O=C(Cn1c(-c2ccccn2)nc2ccccc21)N/N=C/c1ccccn1 | 0.02 | -0.11
COc1ccc(N(CC(=O)NC2CCCC2)C(=O)Cn2nnc(-c3ccc(F)cc3)n2)cc1 | 0.52 | -0.76
N/C(=N\NC(=O)c1sccc1OCc1ccc(Cl)cc1Cl)c1ccccn1 | 0.02 | -1.13
CN(C)CCCN1c2ccccc2CCc2ccccc21 | 1.31 | -1.45
O=C(CSc1nnc(-c2ccncc2)n1-c1ccccc1)Nc1ccc(C(=O)O)cc1 | 0.38 | -0.19
CN(CC(=O)Nc1c(Cl)cccc1Cl)C(=O)Cc1ccc(S(=O)(=O)N2CCOCC2)s1 | 2.4 | -3.77
O=C(O)c1ccccc1C(=O)Nc1ccc(S(=O)(=O)Nc2ccc(F)cc2)cc1 | 1.76 | -0.67

Overlap with the part before: 3 compounds, followed by the next part.
SMILES | KCNQ2 enhance | KCNQ2 enhance baseline
O=C(CSc1nnc(-c2ccncc2)n1-c1ccccc1)Nc1ccc(C(=O)O)cc1 | 0.38 | -0.19
CN(CC(=O)Nc1c(Cl)cccc1Cl)C(=O)Cc1ccc(S(=O)(=O)N2CCOCC2)s1 | 2.4 | -3.77
O=C(O)c1ccccc1C(=O)Nc1ccc(S(=O)(=O)Nc2ccc(F)cc2)cc1 | 1.76 | -0.67
COc1ccc(Cl)cc1N/C(N)=N/c1nc(CSc2ccc(C)cc2)cc(=O)[nH]1 | 0.22 | -0.1
CCCCOC(=O)Nc1ccc(S(=O)(=O)Nc2onc(C)c2C)cc1 | 0.3 | -0.06
O=C(CCS(=O)(=O)c1cc2c(cc1Cl)NC(=O)CO2)NCc1ccccc1 | 0.01 | 1.01
COc1ccc(OC)c(C2Nc3ccccc3NC3=C2C(=O)CC(C)(C)C3)c1 (stereo unspecified) | 0.45 | 0.15
CCCNC(=O)NC(=O)CSc1ncc(C(F)(F)F)cc1Cl | 0.33 | -1.67
CC(=O)c1cccc(OCc2cc(C(=O)N3C[C@H]4CC[C@H]3C4)no2)c1 | 0.45 | 0.14
O=C(COc1ccccc1)NCC(=O)N/N=C/c1ccc(Cl)cc1 | 0.85 | -0.14
Fc1ccccc1NC(=S)N(CCN1CCCCC1)Cc1ccco1 | 0.16 | 1.28
COc1cc(/C=C2\SC(=S)NC2=O)ccc1OS(=O)(=O)c1ccccc1 | 40.9* | -2.02*
Cc1ccc(S(=O)(=O)N/N=C/c2ccccc2F)cc1[N+](=O)[O-] | 2.1 | -1.24
CC(=O)O[C@]1(C(C)=O)CC[C@H]2[C@@H]3C=C(Cl)C4=CC(=O)CC[C@]4(C)[C@H]3CC[C@@]21C | 0.11 | -0.39
COc1ccc(CCn2c(=N)c(C(=O)NC3CCCC3)cc3c(=O)n4ccccc4nc32)cc1OC | 1.81 | 1.33
Cc1cc(C(=O)N/N=C/c2ccc(Br)o2)n[nH]1 | 3.65 | 0.27
CC(NC(=O)CCN1C(=O)c2ccccc2S1(=O)=O)c1ccccc1 (stereo unspecified) | 0.56 | 1.48
O=C1OCCC1Sc1nnc(-c2cccc(Br)c2)o1 (stereo unspecified) | 0.86 | -0.38
CC(C)(C)NC(=O)CSC(=Nc1ccc(F)cc1)NC#N | 0.14 | -0.16

Quoted from above (6 entries):
SMILES | KCNQ2 enhance | KCNQ2 enhance baseline
COc1cc(/C=C2\SC(=S)NC2=O)ccc1OS(=O)(=O)c1ccccc1 | 40.9* | -2.02*
Cc1ccc(S(=O)(=O)N/N=C/c2ccccc2F)cc1[N+](=O)[O-] | 2.1 | -1.24
CC(=O)O[C@]1(C(C)=O)CC[C@H]2[C@@H]3C=C(Cl)C4=CC(=O)CC[C@]4(C)[C@H]3CC[C@@]21C | 0.11 | -0.39
COc1ccc(CCn2c(=N)c(C(=O)NC3CCCC3)cc3c(=O)n4ccccc4nc32)cc1OC | 1.81 | 1.33
Cc1cc(C(=O)N/N=C/c2ccc(Br)o2)n[nH]1 | 3.65 | 0.27
CC(NC(=O)CCN1C(=O)c2ccccc2S1(=O)=O)c1ccccc1 (stereo unspecified) | 0.56 | 1.48
